Screens: PubChem, National Center for Advancing Translational Sciences (NCATS)
D2 agonist – Beta-Arrestin HTS for Positive Allosteric Modulators of the Human D2 Dopamine Receptor: Agonists. D(2) dopamine receptor (Homo sapiens), P14416. DiscoveRx PathHunter D2 beta-arrestin, luminescence, 90 min; 100% = 57 uM dopamine signal. activation, % (concentration not given with the values). hit rate 0.084% among 360,000; in the data active = activation above about 40%; inconclusive = about 15% to 40%; inactive = below about 15%; also: compound concentration not given in the record; the text of the record calls up to 30% inactive
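DiscoveRx PathHunter D2 beta-arrestin cells (2,100/well) attached overnight, then compound-stimulated 90 min at 37 C in HBSS/10 mM HEPES/0.1% Tween-20 buffer; beta-galactosidase complementation read by luminescence after 1 h at ambient temperature. Dopamine 57 uM final (EC100) as control.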
Six1-Eya2 blk – qHTS Assay for Inhibitors of the Six1/Eya2 Interaction. hit rate 0.56% among 360,000. AlphaScreen GST-Six1/His-Eya2 binding, biochemical; active compounds read low; control for the full effect not named in the record. activity change, % (no concentration beside the values). Homeobox protein SIX1 (Homo sapiens) + Protein phosphatase EYA2 (Homo sapiens), …; in the data active = activity change below about -65%; inconclusive = about -30% to -65%; inactive = above about -30%; also: % is scaled to controls: 0 for no effect and ±100 for the full control effect
Target sequence (O00167 whole entry, looked up): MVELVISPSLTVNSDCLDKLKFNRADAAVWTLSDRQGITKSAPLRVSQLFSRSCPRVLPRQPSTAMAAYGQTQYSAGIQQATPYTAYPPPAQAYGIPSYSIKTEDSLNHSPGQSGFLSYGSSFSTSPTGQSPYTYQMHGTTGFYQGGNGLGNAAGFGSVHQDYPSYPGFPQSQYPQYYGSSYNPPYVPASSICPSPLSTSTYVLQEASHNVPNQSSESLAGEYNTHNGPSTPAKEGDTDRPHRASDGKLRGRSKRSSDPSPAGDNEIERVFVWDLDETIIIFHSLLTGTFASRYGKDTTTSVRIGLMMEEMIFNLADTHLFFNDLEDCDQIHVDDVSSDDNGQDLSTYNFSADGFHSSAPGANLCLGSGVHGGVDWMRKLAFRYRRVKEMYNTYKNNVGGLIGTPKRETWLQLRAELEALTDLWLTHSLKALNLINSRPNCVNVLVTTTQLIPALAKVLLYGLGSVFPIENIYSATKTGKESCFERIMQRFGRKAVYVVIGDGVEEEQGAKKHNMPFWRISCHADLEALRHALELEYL
Target sequence (Q15475 whole entry, looked up): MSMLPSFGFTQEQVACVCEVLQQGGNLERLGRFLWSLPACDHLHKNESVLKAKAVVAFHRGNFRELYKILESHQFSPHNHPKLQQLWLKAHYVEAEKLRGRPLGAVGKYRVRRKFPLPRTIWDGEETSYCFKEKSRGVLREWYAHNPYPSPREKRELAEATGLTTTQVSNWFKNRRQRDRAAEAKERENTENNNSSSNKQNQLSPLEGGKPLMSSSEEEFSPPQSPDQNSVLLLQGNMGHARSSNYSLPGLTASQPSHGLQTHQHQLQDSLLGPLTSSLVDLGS
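Compounds are tested against tagged Six1 and Eya2 proteins bridged by glutathione donor and nickel acceptor beads; after a one-hour incubation at 37 °C without light, AlphaScreen emission is recorded.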
gsp agonist – qHTS for Agonist of gsp, the Etiologic Mutation Responsible for Fibrous Dysplasia/McCune-Albright Syndrome: qHTS | gsp mutant cells, cAMP HTRF, 30 min; control for the full effect not named in the record | Potency, µM (top dose mostly 76.9 µM), inactives show top-dose activation (cAMP increase), hits mostly activators | hit rate 0.13% among 340,000 | AID 624287, 2012; active = well fitted activation curve with a large enough effect; inconclusive = small, poorly fitted or top-dose-only effect, or another doubt; inactive = no such curve, though single readings can be large or run the other way; cell line not stated here;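 also: phosphodiesterase inhibitor Ro 20-1724 added with compounds to block cAMP breakdown; potency is read from the fitted curve at half-maximal effect; nearly all actives have a fitted effect of over 60% in size; about a fifth of the inactives were tested at one dose only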
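Cells in DMEM/10% FBS with G418 were pretreated with compounds in DMSO plus […] (300 uM stock) for 30 min at 37C. cAMP was measured by HTRF (cAMP-d2 plus anti-cAMP antibody-K) after 30 min at room temperature.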
D2 PAM – Beta-Arrestin HTS for Positive Allosteric Modulators of the Human D2 Dopamine Receptor: Potentiators; D(2) dopamine receptor (Homo sapiens), P14416; DiscoveRx D2 beta-arrestin cells, luminescence, 90 min; 100% = 57 uM dopamine signal; potentiation, % (concentration not given with the values); hit rate 0.23% among 360,000; AID 624464, 2012; active = potentiation of 50% or more; inconclusive = 30% to 50%; inactive = 30% or less;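 also: compound concentration not given in the record; tested on top of an EC20 dose of dopamine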
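PathHunter D2 cells, attached overnight at 37 deg C, received compound in DMSO plus dopamine at EC20 (50 nM final) for 90 min at 37 deg C. Beta-arrestin recruitment was read as luminescence after 1 h with detection reagent at ambient temperature.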
gsp antag – qHTS for Antagonists of gsp, the Etiologic Mutation Responsible for Fibrous Dysplasia/McCune-Albright Syndrome: qHTS; AID 624288, 2012; Potency, µM (series often up to 76.9 µM), without a hit: at the highest dose activity change, negative = inhibition, usual class: inhibitors; gsp-mutant cells, cAMP HTRF, 30 min; control for the full effect not named in the record; hit rate 0.4% among 340,000; active = falling curve of any shape with a large fitted effect; inconclusive = falling curve, mostly with a smaller effect; inactive = flat or rising curve; cell line not stated here;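 also: intracellular cAMP measured with PDE inhibitor Ro 20-1724 present during compound exposure; potency is read from the fitted curve at half-maximal effect; % is scaled to controls: 0 for no effect and ±100 for the full control effect; nearly all actives have a fitted effect of over 65% in size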
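G418-selected cells were plated in DMEM/10% FBS for 16-24 h at 37C, then treated with compounds plus the PDE inhibitor […] (300 uM solution added) for 30 min at 37C. Intracellular cAMP was measured by HTRF after 30 min lysis at room temperature.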
CtBP-E1A blk – qHTS Assay for Inhibitors of the CtBP/E1A Interaction; AlphaScreen GST-E1A/His-CtBP binding, 1536-well; active compounds read low; control for the full effect not named in the record; hit rate 0.49% among 340,000; AID 651724, 2012; CtBP / adenovirus E1A interaction (AlphaScreen); activity change, % (concentration not given with the values); in the data active means activity change below about -65%; inconclusive means about -30% to -65%; inactive means above about -30%; also: % is scaled to controls: 0 for no effect and ±100 for the full control effect
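In 5 uL wells, 23 nL compound meets equimolar GST-E1A and His-CtBP (5X stock 125 nM each) for 2 h, 37 °C. Beads (5X, 50 ug/mL) then 1 h, 37 °C, dark.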
* = called active by the depositor; & = joins results of further samples; [ ] = dose if it differs, or a comment.

Screening CN(C)S(=O)(=O)c1ccc(Cl)c(NC(=O)CN2CCCC2)c1 returned D2 agonist -3.4, Six1-Eya2 blk 2, gsp agonist -1%[15.4 µM], D2 PAM -22, gsp antag 8% and CtBP-E1A blk -1.
`CCOC(=O)N1CCN(C(=O)COC(=O)CNC(=O)c2ccc(C)cc2)CC1` gave D2 agonist 1.7, Six1-Eya2 blk 6, gsp agonist 10%, D2 PAM 11, gsp antag 17% and CtBP-E1A blk -1.
For CC(C)c1c(O)nc(SCCN(C)C)[nH]c1=O the results were D2 agonist -0.6, Six1-Eya2 blk 7, gsp agonist 3%, D2 PAM 2, gsp antag 10% and CtBP-E1A blk -1.
`O=C(CCc1nnc(CCCCc2ccccc2)o1)N1CCCC(O)C1` (stereo not drawn) gave D2 agonist -2.1, Six1-Eya2 blk 6, gsp agonist -24%, D2 PAM -11, gsp antag 4% and CtBP-E1A blk 12.
For COc1ccccc1-c1cccc([C@@H]2C[C@H]3[C@@H](CN2)CON3C)c1 the results were D2 agonist -2.2, Six1-Eya2 blk 6, D2 PAM -13, gsp antag -5% and CtBP-E1A blk 1.
NC(=O)CC(NC(=S)NCc1ccccc1)C(=O)O (stereo not drawn) was read as D2 agonist -6.0, Six1-Eya2 blk 4, gsp agonist -24%, D2 PAM -18, gsp antag -8% and CtBP-E1A blk 5.
For CC1CCCC(NC(=O)CSc2nncs2)C1C (stereo not drawn) the results were D2 agonist -0.3, Six1-Eya2 blk -3, gsp agonist -6%, D2 PAM 1 and gsp antag 2%.
FC(F)(F)c1cccc(NC(=S)NNC(=S)NCc2ccccc2)c1 was read as D2 agonist -3.4, Six1-Eya2 blk -1, gsp agonist -7%, D2 PAM -23, gsp antag -7% and CtBP-E1A blk 25.
For CCn1c(Cc2cccs2)nnc1SCC(=O)NC1CC1 the results were D2 agonist -1.2, Six1-Eya2 blk -9, gsp agonist -39%[inhibitor], D2 PAM 4, gsp antag 5% and CtBP-E1A blk 0.
For CC1CCCN(C(=O)CSc2nnc(-c3ccc(O)cc3)o2)C1 (stereo not drawn) the results were D2 agonist -1.6, Six1-Eya2 blk -5, gsp agonist 28%, D2 PAM -2, gsp antag -11% and CtBP-E1A blk 0.
O=C(O)c1cccc(Cn2c(Cl)c(/C=N/Nc3ccccc3)sc2=O)c1 was read as D2 agonist 9.3, Six1-Eya2 blk -10, gsp agonist -24%, D2 PAM 12, gsp antag -21% and CtBP-E1A blk -8.
For Cc1ccnc2nc(C(=O)Nc3nnc(-c4ccccc4)o3)nn12 the results were D2 agonist -0.9, Six1-Eya2 blk 0, gsp agonist 4%[15.4 µM], D2 PAM -6, gsp antag 2% and CtBP-E1A blk 22.
`CC(=NO)c1cc(Br)c2cccc3c2c1CC3` gave D2 agonist -4.8, Six1-Eya2 blk 0, gsp agonist -5%, D2 PAM -7 and CtBP-E1A blk 1.
Cc1cc(=O)oc2c(C)c(OCC(=O)NCc3ccccn3)ccc12 was read as D2 agonist 7.0, Six1-Eya2 blk 1, gsp agonist 1%, D2 PAM 0 and gsp antag 12%.
O=C(COC(=O)c1ccc(O)cc1)Nc1cc(S(=O)(=O)N2CCOCC2)ccc1Cl was read as D2 agonist 4.4, Six1-Eya2 blk -4, gsp agonist inconclusive, D2 PAM 3, gsp antag inconclusive and CtBP-E1A blk -6.
Cc1cc(NCCCN(C)C)n2nc(-c3cccs3)cc2n1 was read as D2 agonist -0.8, Six1-Eya2 blk -10, gsp agonist 22%, D2 PAM -9, gsp antag 2% and CtBP-E1A blk -6.
Screening Cc1cc(C)nc(Nc2ncc(O)n2-c2ccc(C)c(Cl)c2)n1 returned D2 agonist -1.9, Six1-Eya2 blk 2, gsp agonist -10%, D2 PAM -10, gsp antag 1% and CtBP-E1A blk 0.
`CCn1cc(C(=O)OCC(=O)c2cc(C)n(-c3ccccc3)c2C)c(=O)c2ccc(C)nc21` gave D2 agonist -1.3, Six1-Eya2 blk -13, gsp agonist inconclusive, D2 PAM -9, gsp antag 4% and CtBP-E1A blk -6.
`COc1ccc(N(CC(=O)NCc2ccccc2)S(=O)(=O)c2c(C)nn(C)c2C)cc1` gave D2 agonist -3.5, Six1-Eya2 blk 0, gsp agonist -30%, D2 PAM -13, gsp antag -2% and CtBP-E1A blk 9.
`CCN(CC)C(=O)[C@H]1CC(CC(=O)NCCCn2ccnc2)C(=O)N2CCc3c([nH]c4ccc(OC)cc34)[C@]12C` (stereo partly drawn) gave D2 agonist -3.7, Six1-Eya2 blk -1, D2 PAM -1, gsp antag 5% and CtBP-E1A blk 0.
Screening O=[N+]([O-])c1ccc(N2CCN(S(=O)(=O)c3ccccc3[N+](=O)[O-])CC2)cc1N1CCc2ccccc2C1 returned D2 agonist -4.3, Six1-Eya2 blk -6, gsp agonist -33%, D2 PAM -15, gsp antag 12% and CtBP-E1A blk 1.
`Cc1ccc(C)c(NC(=O)CCN2CC(C)OC(C)C2)c1` (stereo not drawn) gave D2 agonist -3.9, Six1-Eya2 blk -5, gsp agonist 1%, D2 PAM -13, gsp antag -3% and CtBP-E1A blk 6.
Screening Nc1ccc(N2CCOCC2)c(S(=O)(=O)Nc2ccccc2Cl)c1 returned D2 agonist -0.6, Six1-Eya2 blk 0, gsp agonist -21%, D2 PAM -2, gsp antag 2% and CtBP-E1A blk 3.
For CC(C)NC(=O)/C(=N\O)c1ccccc1 the results were D2 agonist 0.3, Six1-Eya2 blk 1, gsp agonist -8%, D2 PAM -6, gsp antag 3% and CtBP-E1A blk -6.
For CCN1CCCC1CNC(=O)CSc1cc(=O)n(CC)c2ccccc12 (stereo not drawn) the results were D2 agonist -3.4, Six1-Eya2 blk -4, gsp agonist inconclusive, D2 PAM -14, gsp antag -5% and CtBP-E1A blk -6.
Nc1nc(NC(=O)c2cccs2)nn1-c1ccccc1 was read as D2 agonist -2.1, Six1-Eya2 blk -2, gsp agonist -11%, D2 PAM -7, gsp antag 13% and CtBP-E1A blk 5.
For CC(=O)C1=CCC(c2ccc(Cl)cc2)N(S(=O)(=O)c2ccc(C)cc2)C1 (stereo not drawn) the results were D2 agonist -2.5&-5.3, Six1-Eya2 blk 12&-2, D2 PAM 2&-5 and CtBP-E1A blk 5&0.
`COc1cc(CC(=O)OCC(=O)Nc2ccc(Cl)c(S(=O)(=O)N(C)C)c2)cc(OC)c1OC` gave D2 agonist -0.9, Six1-Eya2 blk -4, gsp agonist -14%, D2 PAM -13, gsp antag -25% and CtBP-E1A blk -8.
Nc1nonc1NC(=O)CSc1nc2ccccc2s1 was read as D2 agonist -2.6, Six1-Eya2 blk -13, gsp agonist -18%, D2 PAM -11, gsp antag -11% and CtBP-E1A blk -4.
CN1CCN(C(=O)CCCN2C(=O)/C(=C/c3cccc(Br)c3)SC2=S)CC1 was read as D2 agonist -1.9, Six1-Eya2 blk -13, gsp agonist -30%[inhibitor], D2 PAM -12, gsp antag -4% and CtBP-E1A blk -4.
For N=C1SCC(=O)N1/N=C/c1ccccc1 the results were D2 agonist -2.8, Six1-Eya2 blk 4, gsp agonist 9%[15.4 µM], D2 PAM -9, gsp antag -18% and CtBP-E1A blk 1.
Cc1ccc(-c2ccc(/C=N/N3C(=O)C4C5C=CC(CC5)C4C3=O)o2)c([N+](=O)[O-])c1 (stereo not drawn) was read as D2 agonist -2.2, Six1-Eya2 blk -29, gsp agonist -30%, D2 PAM -27, gsp antag inconclusive and CtBP-E1A blk -12.
`Cc1ccc(NC(=O)CCNC(=O)c2ccc([N+](=O)[O-])cc2)cc1S(=O)(=O)N(C)C` gave D2 agonist 10, Six1-Eya2 blk 3, gsp agonist 7%[15.4 µM], D2 PAM -2 and CtBP-E1A blk 15.
For O=C(C1CC(=O)N(c2ccc(F)cc2)C1)N1CCN(c2ccc(F)cc2)CC1 (stereo not drawn) the results were D2 agonist -1.1, Six1-Eya2 blk 0, gsp agonist 4%[15.4 µM], D2 PAM -14, gsp antag 7% and CtBP-E1A blk -9.
Cn1c(=O)n(C)c2cc3[nH]cnc3cc21 was read as D2 agonist -0.2, Six1-Eya2 blk -10, gsp agonist -1%[15.4 µM], D2 PAM -7, gsp antag 22% and CtBP-E1A blk 3.
COc1ccc(-c2csc(Nc3ccc(S(=O)(=O)Nc4cc(C)on4)cc3)n2)cc1 was read as D2 agonist 0.7, Six1-Eya2 blk -18, gsp agonist -9%[15.4 µM], D2 PAM -4, gsp antag inconclusive and CtBP-E1A blk -5.
Screening CC1(C)OCC(COC(=O)Nc2cccnc2)([N+](=O)[O-])CO1 returned D2 agonist 2.4, Six1-Eya2 blk 4, gsp agonist -19%[15.4 µM], D2 PAM -21, gsp antag 13% and CtBP-E1A blk 14.
`O=C(c1ccccc1)c1cnc(Nc2ccccc2Cl)s1` gave D2 agonist -5.2, Six1-Eya2 blk 18, gsp agonist 42%, D2 PAM -15, gsp antag 5% and CtBP-E1A blk 20.
For CC(C)c1ccc(NC(=O)Cc2c(C(=O)O)n(C)c3ccccc23)cc1 the results were D2 agonist 0.1, Six1-Eya2 blk -29, gsp agonist -1%[15.4 µM], D2 PAM -3, gsp antag -3% and CtBP-E1A blk 0.

Quoted at random: five compounds from above, in no set order.
For CC(=O)C1=CCC(c2ccc(Cl)cc2)N(S(=O)(=O)c2ccc(C)cc2)C1 (stereo not drawn) the results were D2 agonist -2.5&-5.3, Six1-Eya2 blk 12&-2, D2 PAM 2&-5 and CtBP-E1A blk 5&0.
Cn1c(=O)n(C)c2cc3[nH]cnc3cc21 was read as D2 agonist -0.2, Six1-Eya2 blk -10, gsp agonist -1%[15.4 µM], D2 PAM -7, gsp antag 22% and CtBP-E1A blk 3.
Nc1nc(NC(=O)c2cccs2)nn1-c1ccccc1 was read as D2 agonist -2.1, Six1-Eya2 blk -2, gsp agonist -11%, D2 PAM -7, gsp antag 13% and CtBP-E1A blk 5.
`COc1cc(CC(=O)OCC(=O)Nc2ccc(Cl)c(S(=O)(=O)N(C)C)c2)cc(OC)c1OC` gave D2 agonist -0.9, Six1-Eya2 blk -4, gsp agonist -14%, D2 PAM -13, gsp antag -25% and CtBP-E1A blk -8.
`Cc1ccc(NC(=O)CCNC(=O)c2ccc([N+](=O)[O-])cc2)cc1S(=O)(=O)N(C)C` gave D2 agonist 10, Six1-Eya2 blk 3, gsp agonist 7%[15.4 µM], D2 PAM -2 and CtBP-E1A blk 15.
